UUG fidelity: modulators of start codon recognition fidelity in yeast; AID 602363; hit rate 0.13% among 350,000; activity score, % at 18.7 µM; S. cerevisiae UUG-firefly luciferase reporter, luminescence/redox ratio;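 active = replicate mean at a twofold rise or more, about +100% in these data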;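 note: firefly luciferase made from a UUG start codon reports start codon fidelity; reporter light over untreated wells divided by growth signal over untreated wells; some hits fall short of that in this replicate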
HIV Env fusion: HIV envelope-mediated fusion inhibition; HeLa-JRFL Env/CEM21 cell fusion, luciferase; inhibition, % at 12.3 µM; hit rate 1.1% among 360,000;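 active = mean replicate inhibition score of at least 50 and every replicate individually at or above 50; inconclusive = only one of the two criteria met; inactive = mean below 50 and not all replicates reaching 50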;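 note: 0% = plate neutral controls and 100% = maraviroc near 300 nM; one replicate is shown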
Starred values were filed as active, the others as inactive; ? = inconclusive; [ ] = remark or other dose.

SMILES	UUG fidelity	HIV Env fusion
C[C@H]1CN([C@@H](C)CO)C(=O)c2cc(Br)cnc2O[C@H]1CN(C)Cc1ccncc1	-4	-17[16.7 µM]
COc1ccccc1S(=O)(=O)N[C@@H]1C=C[C@H](CC(=O)NCc2cc(F)cc(F)c2)O[C@H]1CO	-7	-17[16.7 µM]
C[C@@H]1CN([C@@H](C)CO)C(=O)Cc2cc(NC(=O)Cn3cnnn3)ccc2O[C@@H]1CN(C)CC1CC1	-10	19[16.7 µM]
CNC[C@H]1Oc2ccc(NS(C)(=O)=O)cc2CC(=O)N([C@H](C)CO)C[C@H]1C	-4	?
C[C@H]1CN([C@@H](C)CO)C(=O)c2cc(-c3ccccc3F)cnc2O[C@H]1CN(C)Cc1cccc(F)c1	0	2[16.7 µM]
COc1ccc(NC(=O)N[C@@H]2CC[C@@H](CCNC(=O)c3cc(Cl)cc(Cl)c3)O[C@@H]2CO)cc1	-11	-3[16.7 µM]
C[C@H]1CN([C@@H](C)CO)S(=O)(=O)c2ccc(/C=C/c3ccccc3)cc2O[C@@H]1CN(C)Cc1ccc(C(=O)O)cc1	8	7[16.7 µM]
C[C@H]1CN([C@@H](C)CO)C(=O)Cc2cc(NS(=O)(=O)c3ccccc3)ccc2O[C@@H]1CN(C)S(C)(=O)=O	-13	-2[16.7 µM]
Cc1noc(C)c1NC(=O)Nc1cccc2c1O[C@H](CN(C)CC1CCCCC1)[C@H](C)CN([C@@H](C)CO)C2=O	2	-9[16.7 µM]
Cc1noc(C)c1NC(=O)N(C)C[C@@H]1OCCCC[C@@H](C)Oc2ccc(NC(=O)Nc3ccccc3)cc2C(=O)N([C@@H](C)CO)C[C@H]1C	-12	-6[16.7 µM]
C[C@H](CO)N1C[C@H](C)[C@H](CN(C)C(=O)Nc2ccccc2)OCCCC[C@H](C)Oc2ccc(NC(=O)c3ccncc3)cc2C1=O	8	4[16.7 µM]
CCNC(=O)C[C@@H]1CC[C@@H]2[C@@H](COc3ccc(NC(=O)Nc4cccc(OC)c4)cc3C(=O)N2C)O1	-1	6[16.7 µM]
O=C(C[C@@H]1CC[C@@H](NC(=O)c2cccc(F)c2)[C@@H](CO)O1)NCc1ccccc1	-15	-4[16.7 µM]
COc1ccc(CN(C)C[C@H]2OCCCC[C@H](C)Oc3ccc(NC(=O)Nc4ccc(C(F)(F)F)cc4)cc3C(=O)N([C@H](C)CO)C[C@@H]2C)cc1	14	?
Cc1ccc(S(=O)(=O)N[C@H]2C=C[C@@H](CC(=O)NCc3ccc(Cl)c(Cl)c3)O[C@H]2CO)cc1	-6	9[16.7 µM]
COc1ccc(S(=O)(=O)N(C)C[C@H]2OCCCC[C@H](C)Oc3ccc(NC(=O)Nc4ccc(F)cc4)cc3C(=O)N([C@@H](C)CO)C[C@H]2C)cc1	5	-43[16.7 µM]
C[C@H]1CCCCO[C@@H](CN(C)Cc2ccc3c(c2)OCO3)[C@@H](C)CN([C@@H](C)CO)C(=O)c2cc(NS(=O)(=O)c3ccc(F)cc3)ccc2O1	16	-28[16.7 µM]
C[C@H](CO)N1C[C@H](C)[C@@H](CN(C)C)Oc2ncc(-c3cccnc3)cc2C1=O	-7	-16[16.7 µM]
Cc1noc(C)c1S(=O)(=O)Nc1ccc2c(c1)C(=O)N([C@@H](C)CO)C[C@H](C)[C@H](CN(C)Cc1ccc(C(=O)O)cc1)OCCCC[C@H](C)O2	13	-3[16.7 µM]
CCCNC(=O)C[C@H]1CC[C@@H]2[C@H](COc3ccc(NC(=O)c4cc(C)on4)cc3C(=O)N2C)O1	-7	1[16.7 µM]
C[C@@H]1CN([C@@H](C)CO)C(=O)Cc2cc(NC(=O)CCN3CCOCC3)ccc2O[C@H]1CN(C)Cc1ccccc1	4	31[16.7 µM]
CO[C@@H]1CN(C)C(=O)c2ccc(NC(=O)C3CCCCC3)cc2OC[C@@H](C)N(C(=O)c2ccccc2)C[C@H]1C	5	-20[16.7 µM]
COc1cccc(S(=O)(=O)N2C[C@@H](O)COC[C@H]3O[C@H](CC(=O)N4CCN(c5ccccc5)CC4)CC[C@@H]32)c1	9	6[16.7 µM]
COc1ccc(NC(=O)Nc2ccc3c(c2)C(=O)N([C@@H](C)CO)C[C@H](C)[C@@H](CN(C)S(=O)(=O)c2c(C)noc2C)OCCCC[C@H](C)O3)cc1	9	68*[16.7 µM]
C[C@@H]1CCCCO[C@@H](CN(C)C(=O)Nc2cccc3ccccc23)[C@@H](C)CN([C@H](C)CO)C(=O)c2cc(NC(=O)CCC(F)(F)F)ccc2O1	-7	6[16.7 µM]

More records.
SMILES	UUG fidelity	HIV Env fusion
COc1ccccc1S(=O)(=O)N(C)C[C@H]1Oc2ncc(-c3ccc(C)cc3)cc2C(=O)N([C@@H](C)CO)C[C@@H]1C	22	25[16.7 µM]
COCC(=O)N(C)C[C@H]1Oc2cc(-c3ccc(C#N)cc3)ccc2S(=O)(=O)N([C@H](C)CO)C[C@H]1C	-4	-1[16.7 µM]
C[C@@H]1CN([C@@H](C)CO)C(=O)Cc2cc(NC(=O)C3CC3)ccc2O[C@@H]1CN(C)C(=O)Nc1cccc2ccccc12	-5	7[16.7 µM]
COc1ccc(NC(=O)N(C)C[C@H]2Oc3c(NS(=O)(=O)c4c(C)noc4C)cccc3C(=O)N([C@H](C)CO)C[C@H]2C)cc1	1	-54[16.7 µM]
O=C(OC[C@@H]1[C@H]2c3ccccc3OC1(CO)N=C1SCC(=O)N12)c1ccccc1	1	11[16.7 µM]
O=C(Cc1ccncc1)NCC[C@@H]1CC[C@@H](NC(=O)C2CCCCC2)[C@H](CO)O1	14	1[16.7 µM]
CCCNC(=O)N(C)C[C@@H]1Oc2ncc(-c3ccncc3)cc2C(=O)N([C@@H](C)CO)C[C@@H]1C	-11	-6[16.7 µM]
Cc1noc(C)c1S(=O)(=O)Nc1cccc2c1O[C@H](CN(C)S(=O)(=O)c1ccccc1)[C@H](C)CN([C@H](C)CO)C2=O	-14	19[16.7 µM]
C[C@@H]1CN([C@@H](C)CO)S(=O)(=O)c2ccc(C#CC3(O)CCCC3)cc2O[C@@H]1CN(C)C(=O)Cc1ccncc1	-4	-8[16.7 µM]
C[C@H](CO)N1C[C@H](C)[C@H](CN(C)C(=O)C2CCCCC2)Oc2ncc(C#CCc3ccccc3)cc2C1=O	-1	-1[16.7 µM]
C[C@@H]1CCCCO[C@@H](CN(C)Cc2ccc(C(F)(F)F)cc2)[C@H](C)CN([C@H](C)CO)C(=O)c2cc(NS(C)(=O)=O)ccc2O1	4	6[16.7 µM]
C[C@@H]1CN([C@H](C)CO)C(=O)c2cc(C#Cc3ccccn3)cnc2O[C@H]1CN(C)Cc1ccccc1	-19	-17[16.7 µM]
C[C@H](CO)N1C[C@H](C)[C@H](CN(C)C(=O)Cc2ccncc2)Oc2cc(C#CC3(O)CCCC3)ccc2S1(=O)=O	6	7[16.7 µM]
O=C(Cc1ccncc1)NCC[C@@H]1CC[C@@H](NS(=O)(=O)c2ccccc2Cl)[C@@H](CO)O1	-21	32[16.7 µM]
C[C@@H]1CN([C@H](C)CO)C(=O)c2cc(C#CC3(O)CCCC3)cnc2O[C@@H]1CN(C)CC1CC1	13	-14[16.7 µM]
C[C@@H]1CN([C@@H](C)CO)C(=O)c2cc(C#CCN(C)C)cnc2O[C@H]1CN(C)C(=O)CN1CCOCC1	5	20[16.7 µM]
C[C@H](CO)N1C[C@H](C)[C@@H](CN(C)Cc2ccc(Oc3ccccc3)cc2)Oc2ccc(NC(=O)Nc3ccc(F)cc3)cc2CC1=O	2	9[16.7 µM]
COc1ccc(NC(=O)N(C)C[C@@H]2Oc3c(NC(=O)Nc4ccc(F)cc4)cccc3C(=O)N([C@@H](C)CO)C[C@H]2C)cc1	18	7[16.7 µM]
CCC(=O)N(C)C[C@@H]1Oc2ncc(C#Cc3ccc(OC)cc3)cc2C(=O)N([C@H](C)CO)C[C@@H]1C	0	-34[16.7 µM]
C[C@H](O)C#Cc1cnc2c(c1)C(=O)N([C@@H](C)CO)C[C@H](C)[C@H](CN(C)C(=O)CN(C)C)O2	2	14[16.7 µM]
COc1ccc(NC(=O)Nc2ccc3c(c2)C(=O)N([C@H](C)CO)C[C@@H](C)[C@H](CN(C)C(=O)Nc2cccc4ccccc24)O3)cc1	-6	4[16.7 µM]
CCCC#Cc1ccc2c(c1)O[C@@H](CN(C)S(=O)(=O)c1cccc(F)c1)[C@@H](C)CN([C@@H](C)CO)S2(=O)=O	-8	60*[16.7 µM]
C[C@@H]1CN([C@@H](C)CO)C(=O)Cc2cc(NS(=O)(=O)c3ccc(Cl)cc3)ccc2O[C@@H]1CN(C)Cc1ccc(C(F)(F)F)cc1	3	17[16.7 µM]
Cc1noc(C)c1NC(=O)Nc1cccc2c1O[C@H](CN(C)Cc1ccc(C(=O)Nc3ccccc3N)cc1)[C@@H](C)CN([C@H](C)CO)C2=O	9	11[16.7 µM]
COCCNC(=O)C[C@@H]1C[C@@H]2c3cc(NS(C)(=O)=O)ccc3O[C@@H]2[C@H](CO)O1	0	3[16.7 µM]

Other records follow:
SMILES	UUG fidelity	HIV Env fusion
CNC[C@H]1OCCCC[C@H](C)Oc2ccc(NS(=O)(=O)c3ccc(C)cc3)cc2C(=O)N([C@H](C)CO)C[C@@H]1C	17	-7[16.7 µM]
C[C@@H]1CN([C@H](C)CO)C(=O)c2cc(NS(=O)(=O)c3cn(C)cn3)ccc2O[C@@H]1CN(C)C(=O)Nc1ccccc1	-11	-18[16.7 µM]
COc1cccc(S(=O)(=O)N(C)C[C@H]2Oc3cc(C#CCC(C)C)ccc3S(=O)(=O)N([C@H](C)CO)C[C@H]2C)c1	-16	73*[16.7 µM]
C[C@@H]1CN([C@@H](C)CO)C(=O)c2cc(/C=C/c3ccccc3)cnc2O[C@@H]1CN(C)C	-3	-6[16.7 µM]
C[C@H]1CN([C@@H](C)CO)S(=O)(=O)c2ccc(C#Cc3ccncc3)cc2O[C@@H]1CN(C)C(=O)C1CCC1	2	0[16.7 µM]
C[C@@H]1CN([C@H](C)CO)C(=O)c2cccc(NC(=O)Nc3ccc(C(F)(F)F)cc3)c2O[C@H]1CN(C)Cc1ccc(Cl)c(Cl)c1	-14	38[16.7 µM]
COc1ccccc1S(=O)(=O)N(C)C[C@H]1Oc2cc(/C=C/c3ccccc3)ccc2S(=O)(=O)N([C@@H](C)CO)C[C@H]1C	-14	6[16.7 µM]
COCC(=O)N(C)C[C@H]1Oc2ncc(C3=CCCCC3)cc2C(=O)N([C@H](C)CO)C[C@@H]1C	-1	-2[16.7 µM]
COCC(=O)N(C)C[C@H]1Oc2ncc(C#Cc3ccncc3)cc2C(=O)N([C@@H](C)CO)C[C@H]1C	-15	8[16.7 µM]
CO[C@H]1CN(C)C(=O)c2cc(NC(C)=O)ccc2OC[C@H](C)N(C(=O)CC2CC2)C[C@@H]1C	-15	14[16.7 µM]
COc1ccc(NC(=O)N(C)C[C@@H]2Oc3ncc(C#CCC(C)C)cc3C(=O)N([C@H](C)CO)C[C@H]2C)cc1	6	23[16.7 µM]
COCc1cn(CC[C@H]2CC[C@@H](NC(=O)Nc3ccc(F)cc3)[C@@H](CO)O2)nn1	-12	6[16.7 µM]
COCCOC(=O)N1C(=O)[C@@]2(c3cc(C#CCC(C(=O)OC)C(=O)OC)ccc31)[C@H](c1ccccc1OCCO)N1[C@H](c3ccccc3)[C@H](c3ccccc3)OC(=O)[C@H]1[C@@H]2C(=O)Nc1nc2ccccc2s1	-5	0[16.7 µM]
CCCC#Cc1ccc2c(c1)O[C@@H](CN(C)Cc1ccccc1)[C@@H](C)CN([C@H](C)CO)S2(=O)=O	0	8[16.7 µM]
Cc1noc(C)c1NC(=O)N[C@H]1CC[C@@H](CC(=O)NCc2ccc(Cl)c(Cl)c2)O[C@@H]1CO	-2	4[16.7 µM]
CC(C)CC#Cc1ccc2c(c1)O[C@H](CN(C)C)[C@@H](C)CN([C@H](C)CO)S2(=O)=O	2	10[16.7 µM]

A second format for part of the listing above:
canonical_smiles | UUG fidelity | HIV Env fusion
COCC(=O)N(C)C[C@H]1Oc2ncc(C3=CCCCC3)cc2C(=O)N([C@H](C)CO)C[C@@H]1C | -1 | -2[16.7 µM]
COCC(=O)N(C)C[C@H]1Oc2ncc(C#Cc3ccncc3)cc2C(=O)N([C@@H](C)CO)C[C@H]1C | -15 | 8[16.7 µM]
CO[C@H]1CN(C)C(=O)c2cc(NC(C)=O)ccc2OC[C@H](C)N(C(=O)CC2CC2)C[C@@H]1C | -15 | 14[16.7 µM]
COc1ccc(NC(=O)N(C)C[C@@H]2Oc3ncc(C#CCC(C)C)cc3C(=O)N([C@H](C)CO)C[C@H]2C)cc1 | 6 | 23[16.7 µM]
COCc1cn(CC[C@H]2CC[C@@H](NC(=O)Nc3ccc(F)cc3)[C@@H](CO)O2)nn1 | -12 | 6[16.7 µM]
COCCOC(=O)N1C(=O)[C@@]2(c3cc(C#CCC(C(=O)OC)C(=O)OC)ccc31)[C@H](c1ccccc1OCCO)N1[C@H](c3ccccc3)[C@H](c3ccccc3)OC(=O)[C@H]1[C@@H]2C(=O)Nc1nc2ccccc2s1 | -5 | 0[16.7 µM]
CCCC#Cc1ccc2c(c1)O[C@@H](CN(C)Cc1ccccc1)[C@@H](C)CN([C@H](C)CO)S2(=O)=O | 0 | 8[16.7 µM]
Cc1noc(C)c1NC(=O)N[C@H]1CC[C@@H](CC(=O)NCc2ccc(Cl)c(Cl)c2)O[C@@H]1CO | -2 | 4[16.7 µM]
CC(C)CC#Cc1ccc2c(c1)O[C@H](CN(C)C)[C@@H](C)CN([C@H](C)CO)S2(=O)=O | 2 | 10[16.7 µM]

Compound activity as filed in PubChem BioAssay.

Not all compounds are listed; the hit share may differ from the screen's.
